RanGTP-Imp inh = disruptors of Ran-importin-beta complex formation – biochemical, FRET, CFP-Ran, YFP-importin-beta, homogeneous, primary screen; hit rate 1.1% among 300,000; cell-free CFP-Ran/YFP-importin-beta FRET ratio; inhibition, % (test concentration not listed);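 active = most replicates above 15%; inconclusive = exactly half above 15%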;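 note: 0% = DMSO wells and 100% = Ran loaded with GDP instead of GTP; wells of about 40 µL received 100 nL stock; the first replicate is given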
A1 inh = inhibitors of the anti-apoptotic protein A1, read as caspase activation. MEF A1-2A-BIM cells, Caspase-Glo 3/7 luminescence, 3 h; percent of clofoctol response, vehicle zero. hit rate 0.066% among 330,000. caspase activation, % (concentration not given with the values). AID 2462;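 active = over half of replicate activation scores above 10%, or exactly half above 10 with the replicate mean above 10; inconclusive = replicate mean below 10 yet half the replicates above 10; inactive = over half of replicates below 10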;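 note: wells of about 30 µL received 50 nL stock; many hits fall short of the cut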
T cruzi inh = T. cruzi replication inhibition; T. cruzi beta-gal in NIH3T3, luminescence, 90 h; inhibition, % (concentration not given with the values); hit rate 1.4% among 300,000; AID 1885;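 active = mean inhibition across valid replicates above about 55%, limit read from the data; inconclusive = mean below that limit but half or more replicates reach it; inactive = mean below it, under half of replicates reach it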;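 note: signal also drops with host cell toxicity which is not excluded here; 0% = plate median of DMSO wells and 100% = zero luminescence signal; higher percent means less beta-gal luminescence so fewer parasites; stock transfer was 50 nL into about 50 µL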
LANA-H2B inh = blocks KSHV LANA binding to histone H2A/H2B; Q9QR71; cell-free LANA-H2A/H2B peptide, fluorescence polarization; inhibition, % (concentration not given with the values); hit rate 0.6% among 320,000; AID 2629; in the data active = inhibition mostly above about 10%, no sharp cut-off; inactive = mostly below about 6.7%;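 note: stock transfer was 7.5 nL into about 10 µL; 0% = median of vehicle wells and 100% = median of positive control wells; one replicate is shown; the record names a cut of 25% in any replicate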
Calb FLC = C. albicans growth modulation with fluconazole | C. albicans CaCi-2 (fluconazole-resistant clinical isolate) + fluconazole, Alamar Blue growth, 48 h | growth inhibition, % (test concentration not listed) | hit rate 0.57% among 300,000;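 active = most replicates above 75%; inconclusive = exactly half above 75%; inactive = most below 75%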;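 note: all wells also contain fluconazole at 8 µg/ml as a sub-toxic cotreatment; 0% = median of DMSO wells and 100% = median of geldanamycin control wells; wells of about 8 µL received 7.5 nL stock; the first replicate is given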
Beta apoptosis = beta cell apoptosis inhibition; INS-1E cytokine-induced death, ATP luminescence, 48 h; percent of positive-control rescue, neutral wells zero; protection from apoptosis, % (concentration not given with the values); hit rate 0.8% among 300,000;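 active = all replicates at 75% or more, or half of them and the mean; inconclusive = half reach 75% but not the mean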;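 note: 0% = cytokine-treated negative control wells and 100% = positive control rescue; higher means more ATP so stronger rescue from cytokine killing; wells of about 40 µL received 100 nL stock; the first replicate is given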
Vif A3G = inhibitors of Vif binding to APOBEC3G peptide, primary screen, biochemical, TR-FRET, GST-Vif 1-94, biotin-A3G peptide, dose response retest (AID 1117319); hit rate 0.57% among 260,000; TR-FRET GST-Vif / biotin-A3G peptide binding; higher % means a stronger effect; test concentration not given here; strong numbers were not always called active; one-dose inhibition, %; IC50 in µM for titrated hits;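 active = above the screen mean plus three standard deviations and confirmed in dose response; inconclusive = results disagree or hit not tested in dose response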;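 note: Vif residues 1-94 fused to GST binding biotinylated APOBEC3G peptide 110-148; 0% = full assay without inhibitor and 100% = GST in place of GST-Vif; retest series ran down from 100 µM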
MLL AF4-AF9 inh = MLL-AF4/AF9 protein interaction inhibition; P42568; AlphaScreen, biotin-AF4 peptide binding to FLAG-AF9; inhibition, % at 10 µM; hit rate 0.47% among 350,000; AID 651704;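 active = every replicate reaching a set inhibition limit, whatever the replicate mean, cut at about 25% in these data; inconclusive = mean inhibition reaches that limit but some replicates miss it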;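 note: 0% = plate neutral control median and 100% = total signal loss; the record names both 10 and 1 µM as test concentration; the first replicate is given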
Target sequence (P42568 whole entry, looked up): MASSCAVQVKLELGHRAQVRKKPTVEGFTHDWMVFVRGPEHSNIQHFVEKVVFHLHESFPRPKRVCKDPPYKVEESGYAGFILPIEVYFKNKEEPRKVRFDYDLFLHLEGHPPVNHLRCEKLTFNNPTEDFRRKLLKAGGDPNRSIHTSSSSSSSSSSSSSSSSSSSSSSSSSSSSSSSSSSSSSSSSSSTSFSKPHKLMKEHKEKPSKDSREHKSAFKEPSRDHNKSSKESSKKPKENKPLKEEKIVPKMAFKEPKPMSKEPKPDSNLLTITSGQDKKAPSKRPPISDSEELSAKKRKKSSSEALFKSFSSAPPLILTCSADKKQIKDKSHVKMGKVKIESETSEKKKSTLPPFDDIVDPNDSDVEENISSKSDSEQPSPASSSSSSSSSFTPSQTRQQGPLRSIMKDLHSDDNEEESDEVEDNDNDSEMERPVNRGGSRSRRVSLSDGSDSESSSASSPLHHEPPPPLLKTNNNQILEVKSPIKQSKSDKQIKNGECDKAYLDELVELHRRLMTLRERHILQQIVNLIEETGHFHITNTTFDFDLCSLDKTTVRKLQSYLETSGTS
Active calls of the source: *.

What do the screens show for `O=C(Nc1ccc(F)cc1)c1ccc(S(=O)(=O)N2CCOCC2)o1`?
RanGTP-Imp inh: -3.6; A1 inh: -0.4; T cruzi inh: -6.9; LANA-H2B inh: 5.9; Calb FLC: -6.4; Beta apoptosis: -2.7; Vif A3G: -8.1%; MLL AF4-AF9 inh: -20.2

Results for CCn1c(SCC(=O)NC2CCCC2)nc2c1c(=O)n(C)c(=O)n2C ?
RanGTP-Imp inh: 6.2; A1 inh: -0.7; T cruzi inh: 1.7; LANA-H2B inh: -4.0; Calb FLC: 0.8; Beta apoptosis: -0.3; MLL AF4-AF9 inh: 3.0

What do the screens show for `CCCCC(=O)Nc1cccc(C(=O)Nc2ccccc2C(=O)O)c1`?
RanGTP-Imp inh: 3.4; A1 inh: 0.0; T cruzi inh: -3.6; LANA-H2B inh: 1.3; Calb FLC: 15.6; Beta apoptosis: 1.6; Vif A3G: 3.1%; MLL AF4-AF9 inh: -0.2

What do the screens show for `COc1ccc(CN2CCNC(=O)C2CC(=O)NC2CCCC2)c(OC)c1` (stereo not given)?
RanGTP-Imp inh: -1.7; A1 inh: -2.7; T cruzi inh: -15.0; LANA-H2B inh: 1.2; Calb FLC: -9.2; Beta apoptosis: -12.2; Vif A3G: 3.7%; MLL AF4-AF9 inh: 2.3

How did COc1ccc(OC(=O)c2ccc(Cl)cc2)c(C(C)=O)c1 do in these assays?
RanGTP-Imp inh: 1.5; A1 inh: -0.1; T cruzi inh: -23.3; LANA-H2B inh: 5.2; Calb FLC: 11.5; Vif A3G: 1.1%; MLL AF4-AF9 inh: -1.2

How did CC(Oc1ccc(-c2ccccc2)cc1)C(=O)N/N=C/c1cccnc1 (stereo not given) do in these assays?
RanGTP-Imp inh: 0.1; A1 inh: 0.1; T cruzi inh: -4.9; LANA-H2B inh: -4.1; Calb FLC: 3.2; Beta apoptosis: 2.2; Vif A3G: -10.5%; MLL AF4-AF9 inh: 2.2

What do the screens show for `CCC(CNc1cc(OC)cc2cccnc12)NC1CCCCC1` (stereo not given)?
RanGTP-Imp inh: -64.1; A1 inh: 0.3; T cruzi inh: 40.8; LANA-H2B inh: 0.5; Calb FLC: -13.1; Beta apoptosis: 101.4*; MLL AF4-AF9 inh: 55.7*

How did C/C(=N\Nc1nc(C)cc(-c2ccccc2)n1)c1ccc(C)o1 do in these assays?
RanGTP-Imp inh: inconclusive; A1 inh: 1.1; T cruzi inh: -3.9; LANA-H2B inh: -4.5; Calb FLC: 6.0; Beta apoptosis: 19.8; Vif A3G: 25.9%

What do the screens show for `CCCCC(=O)Nc1cccc(-c2nc3ncccc3o2)c1`?
RanGTP-Imp inh: -1.3; A1 inh: -0.4; T cruzi inh: 46.7; LANA-H2B inh: 0.0; Calb FLC: -8.3; Beta apoptosis: -0.1; Vif A3G: -1.5%

How did COc1ccc(-c2cc(C(=O)N(C)Cc3ccccc3F)c3ccccc3n2)cc1OC do in these assays?
RanGTP-Imp inh: -1.0; A1 inh: 0.4; T cruzi inh: -24.6; LANA-H2B inh: -1.0; Calb FLC: 6.0; Beta apoptosis: 19.2; MLL AF4-AF9 inh: -8.6

How did Clc1ccc(Br)cc1-c1nc(-c2ccncc2)no1 do in these assays?
RanGTP-Imp inh: -2.1; A1 inh: -0.7; T cruzi inh: -0.6; LANA-H2B inh: 3.5; Calb FLC: 0.0; Beta apoptosis: -1.3; Vif A3G: -1.4%

What do the screens show for `O=C1c2cccc3cccc(c23)C(=O)N1CCCN1CCN(c2ccc(F)cc2)CC1`?
RanGTP-Imp inh: 1.3; A1 inh: 0.3; T cruzi inh: 46.5; LANA-H2B inh: -8.1; Calb FLC: 0.8; Beta apoptosis: 0.0; Vif A3G: 7.5%; MLL AF4-AF9 inh: inconclusive

Results for O=C(COC(=O)/C=C/c1cccc(Br)c1)NCCc1ccccc1 ?
RanGTP-Imp inh: -4.1; A1 inh: -1.3; T cruzi inh: -7.0; LANA-H2B inh: 6.1; Beta apoptosis: -5.7; Vif A3G: -3.9%; MLL AF4-AF9 inh: 0.4

What do the screens show for `CCC1(C)Cc2ccccc2/C(=C/C(=O)N2CCCCC2)N1` (stereo not given)?
RanGTP-Imp inh: 2.7; A1 inh: 0.1; T cruzi inh: 0.4; LANA-H2B inh: 1.0; Calb FLC: -4.2; Beta apoptosis: -0.1; Vif A3G: -0.6%

What do the screens show for `CCCS(=O)(=O)c1c(S(=O)(=O)CCC)c2c(N)cccn2c1C(=O)c1ccc(OC)cc1`?
RanGTP-Imp inh: inconclusive; A1 inh: -0.3; T cruzi inh: 9.9; LANA-H2B inh: 3.5; Calb FLC: 3.2; Beta apoptosis: -1.7; MLL AF4-AF9 inh: 13.9

What do the screens show for `COc1ccccc1-c1nn2c(=O)cc(C)nc2s1`?
RanGTP-Imp inh: -1.8; A1 inh: 0.2; T cruzi inh: -16.1; LANA-H2B inh: -1.9; Calb FLC: -3.9; Beta apoptosis: 6.8; Vif A3G: 6.4%

What do the screens show for `CCOC(=O)CNC(=O)Nc1nnc(-c2ccc(OCC)cc2)o1`?
RanGTP-Imp inh: inconclusive; A1 inh: -1.4; T cruzi inh: -7.5; LANA-H2B inh: 1.9; Calb FLC: 6.2; Beta apoptosis: -5.5; Vif A3G: 11.0%

What do the screens show for `S=c1[nH]ncn1/N=C/c1cccs1`?
RanGTP-Imp inh: 3.0; A1 inh: 0.6; T cruzi inh: -5.2; LANA-H2B inh: -3.4; Calb FLC: 5.8; Beta apoptosis: -1.8; Vif A3G: 3.9%; MLL AF4-AF9 inh: -8.1

How did CC1(C)CC(=O)c2cnc(NC(=O)c3ccco3)nc2C1 do in these assays?
RanGTP-Imp inh: 5.3; A1 inh: -0.4; T cruzi inh: -10.4; LANA-H2B inh: -1.8; Calb FLC: 2.7; Beta apoptosis: -1.2; Vif A3G: 4.5%

How did Cc1ccc(NC(=O)CN(C)CC(=O)Nc2ccccc2C(=O)Nc2ccccc2)cc1 do in these assays?
RanGTP-Imp inh: -0.2; A1 inh: -0.4; T cruzi inh: 28.8; LANA-H2B inh: 2.6; Calb FLC: 29.9; Beta apoptosis: 14.9; Vif A3G: -0.3%; MLL AF4-AF9 inh: -0.1

What do the screens show for `COC(=O)C(C(=O)OC)c1ccccc1[N+](=O)[O-]`?
RanGTP-Imp inh: -0.3; A1 inh: -0.1; T cruzi inh: -14.6; LANA-H2B inh: 2.8; Calb FLC: -4.9; Beta apoptosis: -1.9; Vif A3G: 8.1%

Results for O=C(C1CCCN(c2ncnc3c2nc2n3CCCCC2)C1)N1CCN(c2ccc(F)cc2)CC1 (stereo not given) ?
RanGTP-Imp inh: -0.8; A1 inh: -1.4; T cruzi inh: 23.5; LANA-H2B inh: 0.5; Calb FLC: 1.7; Beta apoptosis: 1.2; Vif A3G: -5.4%; MLL AF4-AF9 inh: 2.3

How did COc1cccc(C(=O)NC(=S)Nc2ccc(Cl)c(C(=O)O)c2)c1 do in these assays?
RanGTP-Imp inh: 3.1; A1 inh: -1.1; LANA-H2B inh: 2.4; Calb FLC: 0.6; Beta apoptosis: -8.9; Vif A3G: 8.8%

How did CCC(=O)Nc1ccc(-c2cc(-c3ccccc3)nc(-c3ccc(NC(=O)CC)cc3)n2)cc1 do in these assays?
RanGTP-Imp inh: 1.6; A1 inh: 0.4; T cruzi inh: 17.1; LANA-H2B inh: -0.6; Calb FLC: 6.4; Beta apoptosis: 16.9; Vif A3G: -12.2%

How did O=C(NCCCCNC(=O)c1ccccn1)c1ccccn1 do in these assays?
RanGTP-Imp inh: 1.6; A1 inh: 1.3; T cruzi inh: -6.5; LANA-H2B inh: -14.8; Calb FLC: -3.2; Vif A3G: 4.8%; MLL AF4-AF9 inh: -8.1

What do the screens show for `O=C(CSc1ccsc1[N+](=O)[O-])N1CCCCC1`?
RanGTP-Imp inh: -0.5; A1 inh: -0.5; T cruzi inh: 9.5; LANA-H2B inh: 1.4; Calb FLC: -45.6; Beta apoptosis: -3.5; Vif A3G: 5.0%; MLL AF4-AF9 inh: 1.7

Results for CCOC(=O)C1CCCN(C(=O)c2cc3c(=O)n4ccccc4nc3s2)C1 (stereo not given) ?
RanGTP-Imp inh: -2.4; A1 inh: 0.5; T cruzi inh: -9.4; LANA-H2B inh: 1.6; Calb FLC: 2.5; Beta apoptosis: -1.0; MLL AF4-AF9 inh: -1.8

Results for Cc1ccc(S(=O)(=O)N2CCC(C(=O)OCC(=O)N3CCCCC3C)CC2)cc1C (stereo not given) ?
RanGTP-Imp inh: -0.9; A1 inh: 0.1; T cruzi inh: -4.8; LANA-H2B inh: 0.4; Calb FLC: -6.9; Beta apoptosis: -0.9; Vif A3G: 0.2%; MLL AF4-AF9 inh: -0.8

What do the screens show for `Cc1ccc(Nc2c3c(nc4ncnn24)CC(C)CC3)cc1` (stereo not given)?
RanGTP-Imp inh: 1.4; A1 inh: 1.0; T cruzi inh: 5.4; LANA-H2B inh: 6.5; Calb FLC: inconclusive; Beta apoptosis: 5.3; Vif A3G: inconclusive

Results for CC(C)CC1(C(=O)NCc2ccccn2)C=CCN1C(=O)c1ccccc1 (stereo not given) ?
RanGTP-Imp inh: 0.9; A1 inh: 1.9; T cruzi inh: 8.6; LANA-H2B inh: -2.2; Calb FLC: -12.6; Beta apoptosis: -2.1; Vif A3G: inconclusive; MLL AF4-AF9 inh: inconclusive

What do the screens show for `CS(=O)(=O)N1CCC(C(=O)NCCN2CCN(Cc3ccccc3)CC2)CC1`?
RanGTP-Imp inh: 1.5; A1 inh: -0.8; T cruzi inh: -2.4; LANA-H2B inh: -4.2; Calb FLC: -1.5; Beta apoptosis: -5.9; Vif A3G: 6.7%; MLL AF4-AF9 inh: -24.6

How did O=[N+]([O-])c1ccc(S(=O)(=O)NCC(c2cccnc2)N2CCc3ccccc32)cc1 (stereo not given) do in these assays?
RanGTP-Imp inh: -0.2; A1 inh: 1.8; T cruzi inh: 69.6*; LANA-H2B inh: -2.7; Calb FLC: -1.3; Vif A3G: 10.2%; MLL AF4-AF9 inh: 2.5

Results for CCOc1ccc(CN2CCN(CC(O)Cn3c4ccccc4c4ccccc43)CC2)cc1 (stereo not given) ?
RanGTP-Imp inh: 0.1; A1 inh: -0.4; T cruzi inh: 29.7; LANA-H2B inh: -3.0; Calb FLC: 3.9; Beta apoptosis: 7.6; Vif A3G: -12.5%

Results for COc1ccccc1Nc1ncccc1C(=O)NCc1ccccc1 ?
RanGTP-Imp inh: inconclusive; A1 inh: 0.3; T cruzi inh: 25.4; LANA-H2B inh: 5.4; Calb FLC: -6.7; Beta apoptosis: -0.8; Vif A3G: 29.5%

What do the screens show for `O=C(CSc1nncs1)NNC(=O)c1ccco1`?
A1 inh: -0.3; LANA-H2B inh: -0.2; Beta apoptosis: -6.2; Vif A3G: -15.6%; MLL AF4-AF9 inh: -1.7

What do the screens show for `O=C(OCCN=C1NS(=O)(=O)c2ccccc21)c1ccccc1F`?
RanGTP-Imp inh: -0.5; A1 inh: 0.5; T cruzi inh: -13.5; LANA-H2B inh: 2.6; Calb FLC: 4.8; Beta apoptosis: -6.7; Vif A3G: -4.4%; MLL AF4-AF9 inh: 0.0

Compound activity from PubChem.
